Screens deposited in PubChem by National Center for Advancing Translational Sciences (NCATS).
Vaccinia Venus = qHTS for Stage-Specific Inhibitors of Vaccinia Orthopoxvirus: Venus Reporter Primary qHTS. Vaccinia virus Venus reporter expression, fluorescence. Potency, µM (highest dose often 36.5 µM), inactives show at the top dose activity change, negative = inhibition, hits mostly inhibitors. 0.46% of 330,000 active. AID 720580, 2013; active means well fitted inhibition curve with a large enough effect; inconclusive means small, poorly fitted or top-dose-only effect; inactive means no such curve, though single readings can be large or run the other way; tested in A549 cells; further: nearly all actives have a fitted effect of over 30% in size; inactives centre near -10
VACV mCherry inh = qHTS for Stage-Specific Inhibitors of Vaccinia Orthopoxvirus: mCherry Reporter Primary qHTS; Potency, µM (series often up to 36.5 µM), without a hit: at the highest dose activity change, negative = inhibition, usual class: inhibitors; 0.63% of 310,000 active; Vaccinia virus mCherry reporter infection, fluorescence; about a quarter of the inactives have no number; active = well fitted inhibition curve with a large enough effect; inconclusive = small, poorly fitted or top-dose-only effect; inactive = no such curve, though single readings can be large or run the other way; tested in A549 cells; further: nearly all actives have a fitted effect of over 35% in size; inactives centre near -10
* hit, by the source's call; i = inactive; ? = inconclusive; . = no result given; & = joins results of further samples; [ ] = remark or other dose. On the % scale 0 is the no-effect control and ±100 the full control effect; potency means the concentration at half of the fitted maximal effect.

| SMILES | Vaccinia Venus | VACV mCherry inh |
| --- | --- | --- |
| CCOC(=O)c1c(NC(=O)c2ccco2)n(C2CCCCC2)c2nc3ccccc3nc12 | 5% | -7% |
| Cc1cc(C)cc(OCC(=O)OCc2cc([N+](=O)[O-])cc3c2OCOC3)c1 | -19% | -13% |
| CCOC(=O)C(CC)(CC)C(=O)/C=C/c1ccc(Br)cc1 | ? | ? |
| CCn1c(NC(=O)C2CCCCC2)nc2ccccc21 | ? | -27% |
| COC(=O)[C@]12CCCCC=C1N(CCC1=CCCCC1)C(=O)[C@H](CC(=O)NCc1ccc(C)o1)C2 | -4% | -17% |
| Cn1c(=O)c2[nH]c(=S)n(Cc3ccccc3)c2n(C)c1=O | -17% | i |
| O=C(COC(=O)c1ccc(-c2ccc([N+](=O)[O-])cc2)o1)NC(=O)NC1CCCCC1 | -6% | i |
| CC(C)CCNC(=O)Nc1ccc2c(c1)N(C)C(=O)c1ccccc1S2 | -16% | -24% |
| Cc1[nH]n(-c2ccc([N+](=O)[O-])cc2)c(=O)c1C=NCCc1ccc(S(N)(=O)=O)cc1 | -8% | -11% |
| O=C(NCc1ccco1)C(=O)NCC1OCCN1S(=O)(=O)c1ccc(Cl)cc1 (stereo not given) | -7% | i |
| CCCCNC(=O)c1onc(CSc2cc(C)cc(C)c2)c1C(=O)NCCCC | -15% | i |
| COc1cc(C(=O)O)nc(OC)n1 | -12% | i |
| O=C1NCCN1C(=O)c1ccco1 | -2% | i |
| Cc1ccc2nccc(C(=O)N3CCCC(Nc4ccc(F)cc4)C3)c2c1 (stereo not given) | -3% | i |
| CCN(C(=O)Cn1nc(Cc2ccncc2)c2ccccc2c1=O)c1cccc(C(F)(F)F)c1 | -13% | -14% |
| CCOCCCNC(=S)NCCCNc1nc2cc3c(cc2cc1C#N)OCO3 | -14% | -7% |
| COc1ccc(Oc2nc(C)cc(C)c2S(C)(=O)=O)cc1 | -8% | 15% |
| Cc1occc1C(=O)NNC(=O)c1ccccc1C(=O)O | -14% | i |
| Cc1[nH]c(=O)c(C#N)c(C)c1CCC(=O)N(C)CC(=O)Nc1ccc(Cl)c(Cl)c1 | 1% | 1% |
| O=C(c1cccs1)N1CCCc2cc(NS(=O)(=O)c3ccc(Cl)cc3)ccc21 | -26% | -20% |
| Nc1c(C(=O)NCCc2ccccc2)c2nc3ccccc3nc2n1CCN1CCOCC1 | ? | ? |
| COC(=O)c1ccccc1N=Nc1c(C)[nH][nH]c1=O | -4% | -12% |
| COc1ccc(Cl)cc1-c1nc(N)nc(NC2CCCCC2)n1 | -12% | -15% |
| COc1cc(NC(=O)c2ccc(S(=O)(=O)N(C)C)cc2)cc(OC)c1OC | 4% | -3% |
| COc1ccc(-c2oc3ccccc3c2C#CC(C)(C)O)cc1 | -29% | ? |
| Cc1c(C)n(C)c2ccc(C(=O)NCCCN(C)C3CCCCC3)cc12 | -6%[7.34 µM] | -12%[7.34 µM] |
| C=CCNC(=O)c1cc2c(=O)c3ccccc3oc2nc1C | 7% | i |
| CC(=O)Nc1ccc2[nH]c3ccccc3c2c1 | -9% | -16% |
| CCc1ccc([C@@H]2CC=C(C(=O)O)[C@H](c3ccc(Cl)cc3)N2S(=O)(=O)c2ccc(C)cc2)cc1 | -18% | i |
| CC[C@@]12C(=O)N(c3ccc(C)cc3)C(=O)N1[C@H](c1ccc(Br)cc1)[C@@H]1C(=O)N(C(C)(C)C)C(=O)[C@@H]12 | -15% | i |
| O=C(NC1CCCN(c2ccc(C(F)(F)F)cn2)C1)c1cc(Cl)ccc1F (stereo not given) | -23% | -11% |
| O=C(CCl)Nc1cc(S(=O)(=O)N2CCOCC2)ccc1N1CCOCC1 | -12% | -11% |
| Cc1cccc(NC(=O)CCC(=O)N/N=C/c2ccncc2)c1 | -10% | -12% |
| Cc1cccc(-c2n[nH]c(=S)n2C)c1 | -11% | -5% |
| C/C(=N\NC(=O)c1cc(O)ccc1O)c1cccc(NC(=O)c2ccc(Cl)cc2)c1 | -13% | 0% |
| Cc1cc(C)n2c(SCC(=O)N(C)C3CCS(=O)(=O)C3)nnc2n1 (stereo not given) | 13% | -6% |
| CCCS(=O)(=O)NC(=O)C1(C)CCCN(C(=O)/C=C/c2ccccc2)C1 (stereo not given) | 4% | i |
| CCOC(=O)C1=NNC2(c3ccc(Cl)cc3)C(=O)N(c3cc(C)cc(C)c3)C(=O)C12 (stereo not given) | -15% | -20% |
| O=S(=O)(Nc1ccc2c(c1)OCCO2)c1ccc(Br)s1 | -6% | -12% |
| CC(Oc1ccc(Cl)cc1Cl)C(=O)Nc1ccc(S(=O)(=O)Nc2cnc3ccccc3n2)cc1 (stereo not given) | -3% | -19% |
| CN(C)c1ccc(NC(=O)CSc2nc3ccsc3c(=O)n2CCCCCC(=O)O)cc1 | -16% | -5% |
| CCOC(=O)C1CCN(Cc2oc(CO)cc(=O)c2O)CC1 | 2% | -14% |
| CCOC(=O)c1ccc(N2C(=O)c3n[nH]c(-c4cccs4)c3C2c2ccc(OC)cc2OC)cc1 (stereo not given) | ? | 13µM* |
| COC(c1ccccc1)c1nnc(CCC(=O)N2CCCCCCC2)o1 (stereo not given) | -9% | -25% |
| CC1(C)Cc2c(sc3c2C2=NCCN2C=N3)CO1 | -6% | -9% |
| Cc1ccccc1Nc1nc(N)nc(CSCc2c(C)noc2C)n1 | 5% | 0% |
| COc1ccc(S(=O)(=O)N(C)CC(=O)Nc2ccccc2C(F)(F)F)cc1OC | -9% | . |
| O=C(Cc1ccc(NC2=NC3CS(=O)(=O)CC3S2)cc1)N1CCN(c2ccc(F)cc2)CC1 (stereo not given) | -2% | -6% |
| O=C(NCCO)/C(=C\c1cccs1)NC(=O)c1cccs1 | -5% | i |
| CC1CC(C)CN(C(=O)COC(=O)c2ccc3c(c2)OCCO3)C1 (stereo not given) | -1% | i |
| Cc1cc(=O)oc2c3c(cc(OCC(=O)N4CCC(C(=O)O)CC4)c12)OC(C)(C)CC3 | 1% | 6% |
| CN(C)C(CNC(=O)Cc1cccc(C(F)(F)F)c1)c1ccccc1 (stereo not given) | -2% | -5% |
| COc1ccc(S(=O)(=O)N2CCC(C(=O)NCCN3CCOCC3)CC2)cc1C | -10% | -20% |
| CCCCCCN1C[C@@H](O)[C@H](n2cc(C3CC3)nn2)C[C@@H]1c1ccc(OC)cc1 | -7% | i |
| S=C(c1ccccc1)N1CCN(C(=S)c2ccccc2)CC1 | -7% | -1% |
| CCOC(=O)c1cc(C(=O)c2cc(Br)ccc2O)coc1=N | 9% | i |

The list goes on:
| SMILES | Vaccinia Venus | VACV mCherry inh |
| --- | --- | --- |
| O=c1cc(CSc2ccccc2)nc(-c2ccccc2)[nH]1 | -7% | -12% |
| Cc1ccc2onc(CNC(=O)NCc3cccc(Cl)c3)c2c1 | -12% | 0% |
| CC(C)CCNC(=O)NC(=O)COC(=O)CNC(=O)C1CCCCC1 | -3% | -14% |
| Cc1c(Cl)cccc1NC(=O)Cn1cnc(S(=O)(=O)N2CCCC2)c1 | -8%&5% | -17%&-5% |
| CCc1ccccc1NC(=O)C1C2C=CC(O2)C1C(=O)O (stereo not given) | 0% | i |
| COC(=O)CCC(=O)N1CCCC(CNS(=O)(=O)c2ccc(OC)cc2)C1 (stereo not given) | 7% | i |
| O=C(CCCN1C(=O)/C(=C/c2ccccc2OC(F)F)SC1=S)Nc1cccnc1 | ? | ? |
| C=CCNCC(=O)NN=C(c1ccccc1)c1ccccc1 | -11% | . |
| COc1ccc2cc(C3(C)NC(=O)NC3=O)ccc2c1 (stereo not given) | -16% | -8% |
| CCCN1CCC(=O)N(CCOc2ccccc2)CC1 | -4%&-8% | i |
| CCCN(Cc1ccccc1)C(=S)Nc1ccc(C(C)=O)cc1 | -14% | -6% |
| COc1cc(=O)n2c(c1C(=O)N(C)Cc1nonc1C)CCN(CC1CC=CCC1)CC2 (stereo not given) | -16% | i |
| CN(c1ccccc1)S(=O)(=O)c1nnc(NC(=O)C2CCCCC2)s1 | -10% | -8% |
| Cc1cc(C(=O)OCC(=O)Nc2ccc(S(=O)(=O)N3CCOCC3)cc2)c(C)o1 | -16% | -18% |
| Cc1[nH][nH]c(=O)c1C(c1ccccc1[N+](=O)[O-])C(C#N)C#N (stereo not given) | -6% | -6% |
| O=C(NNC(=O)c1cccs1)c1csc(N2CCOCC2)n1 | -17% | -7% |
| COc1cccc(C(C(=O)NCC2CCCO2)N(C(=O)Cn2nnc3ccccc32)c2ccc(NC(C)=O)cc2)c1OC (stereo not given) | 0% | -8% |
| C#CCn1cc(/C=N/Nc2nc3ccccc3[nH]2)c2ccccc21 | ? | ? |
| CN(CC1COc2ccccc2O1)C(=O)c1cccc(S(=O)(=O)N2CCCC2)c1 (stereo not given) | -9% | -11% |
| Cc1cccc(N2CCN(c3ncnc4onc(-c5ccc(F)cc5)c34)CC2C)c1 (stereo not given) | 1% | -6% |
| C/C(CC(=O)Nc1ccccn1)=N\NC(=O)Cc1cccc2ccccc12 | -6% | i |
| COC(=O)C(C)N(C#N)c1nc(NC(C)C)nc(SC)n1 (stereo not given) | -11% | . |
| CCOc1cc(S(=O)(=O)NCCc2ccccc2C)c(OCC)cc1-n1cnnn1 | -15% | -18% |
| C[C@H]1CNC(=O)c2c(C(=O)Nc3cccc(Cl)c3)ncn21 | ? | ? |
| C/C(=N/NC(=O)COc1ccc(C(C)(C)C)cc1)c1ccc(N2CCOCC2)cc1 | -14% | i |
| CNc1c(NS(=O)(=O)c2ccc(C(C)(C)C)cc2)c(=O)oc2ccccc12 | 4% | -5% |
| O=C(Nc1cc(S(=O)(=O)Nc2ccccc2Cl)ccc1O)c1ccc(F)cc1F | -8% | -3% |
| Cc1n[nH]c(C)c1CCN(C)C(=O)C1CCC(=O)N(CC2CCCCC2)C1 (stereo not given) | 0% | -16% |
| c1ccc(-n2nnnc2SCc2cccc(CSc3nnnn3-c3ccccc3)n2)cc1 | -15% | . |
| COc1ccc(/C=N/NC(=O)c2cc(-c3ccccc3)nc3ccccc23)cc1O | 1% | -21% |
| Cc1csc(C(C)N(C)C(=O)c2ccc(OC3CCN(Cc4ccccn4)CC3)cc2)n1 (stereo not given) | -16% | -18% |
| CCN(CC)C(=O)C1CCCN(c2ncnc3c2cnn3-c2cccc(C)c2)C1 (stereo not given) | -26% | -14%[1.46 µM] |
| COc1cc(/C=N/N2CCCCC2)cc(OC)c1O | -4% | ? |
| Cc1ccc2c(Cl)c(C(=O)Nc3cccnc3)sc2c1 | -22% | -26% |
| Cc1ccccc1N(CC(=O)NCCSc1ccccn1)S(=O)(=O)c1ccccc1 | -17% | -20% |
| C=CCOc1ccc(/C=C/C(=O)OCC(=O)NCc2cccs2)cc1 | -13% | -7% |
| Cc1cc(=O)[nH]c2sc(C(=O)N3c4ccccc4CC3C)c(N)c12 (stereo not given) | -12% | -7% |
| COc1ccc(NC(=O)C2CCCN(S(C)(=O)=O)C2)c(OC)c1 (stereo not given) | -13% | -12% |
| COc1ccccc1-c1noc(-c2ccc(NCc3ccccc3)c([N+](=O)[O-])c2)n1 | -9% | -3% |
| CC1CCCN(CCOCCOc2ccc(Br)cc2Cl)C1 (stereo not given) | -23% | i |
| COc1ccc(CNCCC(c2ccccc2)C2CCOC(C)(C)C2)cc1 (stereo not given) | -10% | -18% |
| CCOC(=O)c1ccc(NC(=O)Cn2nnc(-c3ccc(C(F)(F)F)cc3)n2)cc1 | 1% | 0% |
| COc1cccc(/C=N\NC(=O)c2cc(OCC(F)(F)F)ccc2OCC(F)(F)F)c1 | -11% | . |
| O=c1[nH]c(-[n+]2ccccc2)c(/C=N/N=C(\[O-])c2ccccc2)s1 | 1% | i |
| COc1ccc(-n2cc(C(=O)NCCc3ccc(C)cc3)c3ccccc3c2=O)cc1 | -11% | -11% |
| Cc1ccc(NC(=S)N(CCCN2CCCC2)Cc2cccn2Cc2ccc(Cl)cc2)cc1Cl | -19% | -16% |
| CC(NC(=O)Cn1cc(C(F)(F)F)ccc1=O)c1ccc(F)cc1 (stereo not given) | 4% | 10% |
| CCOc1ccc2[nH]c(=O)c(C(c3nnnn3Cc3ccco3)N3CCC(C)CC3)cc2c1 (stereo not given) | -16% | . |
| Nc1ncnc2c1ncn2[C@@H]1O[C@H](C(=O)N[C@H](CO)Cc2ccc(O)cc2)[C@@H](O)[C@H]1O | -2% | i |
| Nc1nc(SCC(=O)N2CCc3ccccc3C2)[nH]c(=O)c1-c1ccccc1 | -10% | i |
| CC(/C=C/c1ccc2c(c1)OCO2)=N\NC(=O)c1ccccc1 | -10% | -16% |
| CC1CN(S(=O)(=O)c2cc(C(=O)NC(C)c3cccnc3)ccc2Cl)CC(C)O1 (stereo not given) | -5% | -11% |
| CS(=O)(=O)N(CC(=O)Nc1ccccc1C(=O)N1CCOCC1)c1ccccc1 | -17% | . |
| COc1ccc(NS(=O)(=O)c2cccc(-c3nnc(-c4ccccc4)o3)c2)cc1 | 0% | i |

Structures shown so far containing bromine, in the order listed:
| SMILES | Vaccinia Venus | VACV mCherry inh |
| --- | --- | --- |
| CCOC(=O)C(CC)(CC)C(=O)/C=C/c1ccc(Br)cc1 | ? | ? |
| CC[C@@]12C(=O)N(c3ccc(C)cc3)C(=O)N1[C@H](c1ccc(Br)cc1)[C@@H]1C(=O)N(C(C)(C)C)C(=O)[C@@H]12 | -15% | i |
| O=S(=O)(Nc1ccc2c(c1)OCCO2)c1ccc(Br)s1 | -6% | -12% |
| CCOC(=O)c1cc(C(=O)c2cc(Br)ccc2O)coc1=N | 9% | i |
| CC1CCCN(CCOCCOc2ccc(Br)cc2Cl)C1 (stereo not given) | -23% | i |
